# Compound activity from PubChem.
# NS1 function inh: inhibitors of influenza NS1 protein function. Potency, µM (series often up to 46.1 µM), without a hit: at the top dose activity, positive = more growth. 270,000 compounds, 0.4% hits. S. cerevisiae slowed by influenza A NS1, growth recovery by OD600; active means well fitted rising curve with a large enough effect; inconclusive means small, poorly fitted or top-dose-only effect; inactive means no such curve, though single readings can be large or run the other way; further: nearly all actives have a fitted effect of over 50% in size
#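 Read-out: OD600 growth recovery of NS1-expressing budding yeast. Cells grown overnight at 30C in -URA glucose medium, washed, resuspended and diluted 1:100 in 2% galactose assay medium, pH 6.0. Same strain lacking NS1 served as positive control.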
# Cruzain Triton: blocks cruzain activity in presence of Triton detergent. P25779. AID 1478. 200,000 compounds, 0.43% hits. purified cruzain, Z-FR-AMC fluorescence, 0.01% Triton. Potency, µM, without a hit: max response, negative = inhibition, most hits filed as inhibitors;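 further: plate controls were neutral wells for no effect and buffer without enzyme for full effect; nearly all actives have a fitted effect of over 40% in size; top concentration of the series not given in the record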
# Target sequence (P25779 123-467 limits assumed): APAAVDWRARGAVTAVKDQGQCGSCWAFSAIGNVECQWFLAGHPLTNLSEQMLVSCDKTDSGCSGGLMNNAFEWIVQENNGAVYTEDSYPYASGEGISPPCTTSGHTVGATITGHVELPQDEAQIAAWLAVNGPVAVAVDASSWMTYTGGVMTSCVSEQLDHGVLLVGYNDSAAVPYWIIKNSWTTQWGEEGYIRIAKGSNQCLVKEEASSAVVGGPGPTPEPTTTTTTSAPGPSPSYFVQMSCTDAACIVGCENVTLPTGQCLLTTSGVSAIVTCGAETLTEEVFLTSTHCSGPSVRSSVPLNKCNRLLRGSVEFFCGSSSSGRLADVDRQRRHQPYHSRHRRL
#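 15 min RT preincubation of 1.5 nM cruzain with compound, then 2 uM Z-FR-AMC added; kinetic AMC fluorescence, 60 s delta. Triton X-100 0.01%, pH 5.5.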
# SARS PLpro yeast: SARS-CoV PLP inhibition in yeast; 330,000 compounds, 0.19% hits; S. cerevisiae expressing SARS-CoV PLpro, growth rescue; control for the full effect not named in the record; Potency, µM (titrated, usually from 32.9 µM), without a hit: at the highest dose activity, positive = growth rescue; AID 485353; active means well fitted rising curve with a large enough effect; inconclusive means small, poorly fitted or top-dose-only effect; inactive means no such curve, though single readings can be large or run the other way; further: 0% is about no effect; nearly all actives have a fitted effect of over 55% in size; growth read by luminescence after 48 h
# Cruzain inh noDet: blocks cruzain activity in detergent-free assay; purified cruzain, Z-FR-AMC fluorescence, no detergent; P25779; Potency, µM, inactives show max response, negative = inhibition, actives largely listed as inhibitors; 200,000 compounds, 2.3% hits;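 further: plate controls were enzyme without inhibitor for no effect and buffer without enzyme for full effect; nearly all actives have a fitted effect of over 40% in size; top concentration of the series not given in the record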
#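 Detergent-free condition (0.00005% Triton X-100) in acetate buffer pH 5.5 with DTT. 1.5 nM enzyme and compound were pre-mixed 15 min, then 2 uM Z-FR-AMC substrate added; reaction progress from fluorescence change between first and third reads (60 s).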
# 2A StopGo: lowers the luciferase signal of an FMDV 2A StopGo reporter | Potency, µM (series often up to 57.9 µM), for inactives: at the top dose signal change, negative = less light | human cells with a luciferase reporter of 2A StopGo recoding; control for the full effect not named in the record | AID 1159524 | 410,000 compounds, 1.2% hits; active = well fitted falling curve with a large enough effect; inconclusive = small, poorly fitted or top-dose-only effect; inactive = no such curve, though single readings can be large or run the other way; tested in HEK293T cells; further: on the % scale 0 is the no-effect control and ±100 the full control effect; nearly all actives have a fitted effect of over 45% in size; luciferase light after 4 h
# Lassa entry inh: blocks Lassa virus binding to or entry into cells; Lassa virus pseudotype entry inhibition, cell reporter; control for the full effect not named in the record; Potency, µM (doses to about 37.9 µM), for inactives: at the highest dose activity change, negative = inhibition, most hits filed as inhibitors; 300,000 compounds, 1.2% hits; active means well fitted inhibition curve with a large enough effect; inconclusive means small, poorly fitted or top-dose-only effect, or effect the other way; inactive means flat fitted curve, though single readings scatter; tested in HEK293 cells; further: on the % scale 0 is the no-effect control and ±100 the full control effect; nearly all actives have a fitted effect of over 50% in size; luciferase read-out
# MARV entry inh: inhibitors of Marburg virus binding or cell entry. 300,000 compounds, 1.8% hits. Marburg virus pseudotyped entry inhibition, cell reporter; control for the full effect not named in the record; about a third of the inactives were read at about 46 µM. Potency, µM (highest dose often 37.8 µM), without a hit: top-dose activity change, negative = inhibition, most hits filed as inhibitors. AID 540276; active = well fitted inhibition curve with a large enough effect; inconclusive = small, poorly fitted or top-dose-only effect, or effect the other way; inactive = flat fitted curve, though single readings scatter; tested in HEK293 cells; about a fifth of its hits are not listed in these tables; further: on the % scale 0 is the no-effect control and ±100 the full control effect; luciferase read-out
# RE007 growth inh: less growth of the S. pombe RE007 Vpr strain. S. pombe RE007 Vpr strain, BacTiter-Glo ATP luminescence, 24 h; control for the full effect not named in the record. Potency, µM (highest dose often 92.2 µM), without a hit: at the top dose activity change, negative = less growth. 360,000 compounds, 0.21% hits. AID 651644; active = well fitted falling curve with a large enough effect; inconclusive = small, poorly fitted or top-dose-only effect; inactive = no such curve, though single readings can be large or run the other way;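 further: on the % scale 0 is the no-effect control and ±100 the full control effect; nearly all actives have a fitted effect of over 50% in size; the assay follows cell death caused by Vpr and the record does not say whether a fall means rescue or toxicity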
#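 Fission yeast strain RE007, carrying one chromosomally integrated HIV-1 vpr copy, was seeded at OD 0.01 in PMG+AL medium with 23 nL pinned compound. After 24 h at 30 °C and 99% humidity, viability was read by BacTiter-Glo luminescence.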
# * marks the source's active call; other numbers are inactive results; ? = inconclusive; · = not tested or not shown; & = joins results of further samples; [ ] = dose if it differs, or a comment. Unless noted, the call rests on the fitted dose curve; in most records, active means well fitted curve in the direction sought with a large enough effect; inconclusive means small, poorly fitted or top-dose-only effect, or another doubt; inactive means no such curve, though single readings can be large; an effect the other way counts as inactive or inconclusive. Potency means the concentration at half of the fitted maximal effect.
SMILES,NS1 function inh,Cruzain Triton,SARS PLpro yeast,Cruzain inh noDet,2A StopGo,Lassa entry inh,MARV entry inh,RE007 growth inh
CCOC(=O)c1nc(Nc2ccccc2OC)c2ccccc2n1,·,-7.6%,·,-6%,0%,-16%[46.1 µM],-13%[46.1 µM],·
CC(CNC(=O)c1cc(-c2ccccc2)n[nH]1)c1ccccc1 (stereo unspecified),·,-6.3%,·,-11%,19%,21%[46.1 µM],·,·
COc1ccc(NC(=O)C2CCN(S(=O)(=O)c3ccc4c(c3)CCCC(=O)N4)CC2)cc1OC,·,0.2%,·,8%,-14%,-18%[46.1 µM],·,·
Cc1cc2oc(C(=O)Nc3ccc(S(N)(=O)=O)cc3)cc(=O)c2cc1C,·,-8.6%,·,-13%,-12%,7%[46.1 µM],-13%[46.1 µM],·
Cc1ccc(Cn2nc(C)cc2C(=O)Nc2ccccc2Cl)cc1,-3%,·,-2%,·,35%[activator],?,?,4%
COCCN(C(=O)COC(=O)c1ccccc1Cc1ccccc1)c1c(N)n(Cc2ccccc2)c(=O)[nH]c1=O,·,·,-2%,·,-20%,?,-18%,17%
CNC(=S)N(CCc1c(C)[nH]c2ccc(F)cc12)Cc1cccnc1,7%,·,1%,·,-14%,·,·,4%
CCOc1ccc(C2NC(=S)NC3=C2CCc2ccccc23)cc1 (stereo unspecified),5%,·,-4%,·,12%,?,7.9µM*,14%
CC1CCCN(S(=O)(=O)c2ccc3c(c2)CCN3C(=O)C2CCC2)C1 (stereo unspecified),1%,-3.1%,0%,?,-11%,-4%,9%,23%
O=S(=O)(c1ccccc1)c1nc(-c2cccs2)oc1NCc1cccnc1,·,·,-2%,·,50%[activator],-6%,-5%,3%
CC(=O)C1=C(O)C(=O)N(CCN(C)C)C1c1ccc(Cl)cc1 (stereo unspecified),-5%,2.1%,6%,10%,8%,4%,0%&0%,3%
COc1ccc(-c2noc3c2-c2nc(-c4cccc(C)c4)sc2CC3)cc1,6%,·,3%,·,-21%,·,·,-3%
O=C(c1cccc(N2C(=O)C3C4C=CC(C4)C3C2=O)c1)N1CCN(c2ccccc2F)CC1 (stereo unspecified),1%,·,?,·,-12%,·,·,13%
Cc1nc2ccccc2c2oc(C(=O)Nc3ccc4c(c3)OCCO4)cc12,-70%,-10%,2%,?,-28%,·,·,5%
C=CCn1c(SCC(=O)c2c(N)n(C)c(=O)n(C)c2=O)nnc1-c1ccccc1F,0%,·,1%,·,-29%,2%,-7%,6%
CCOC(=O)c1ccccc1N/C=C1\CCCCC1=O,-22%,-5.9%,-9%,12%,·,?,1%,-10%
O=C(NC1CCCC1)c1ccc(CSc2nc3ccncc3n2Cc2ccc(F)cc2)cc1,-24%,-5.8%&-1.7%,-1%,-7%&-1%,-28%&-23%,26%[46.1 µM],-22%[46.1 µM],4%
N#CC(c1ccccc1)N(CCCCl)C(=O)c1ccc(Br)cc1 (stereo unspecified),-18%,-3.5%,-4%,-9%,-3%,-3%,34%,13%
COc1cccc2sc(Nc3nc(C)c(C(C)=O)s3)nc12,-59%,-15%,3%,?,-23%,?,?,7%
O=C(Cc1c[nH]c2ccccc12)Nc1ccc(N2CCOCC2)cc1,·,·,1%,·,16%,20%,4%[46.1 µM],-8%
CCCc1cnc2c(c1SCc1cccc(C)c1)c(=O)n(C)c(=O)n2C,·,-0.4%,·,-11%,?,30%[46.1 µM],·,·
Cc1ccccc1OCC(=O)Nc1ccccc1-c1ccccc1NC(=O)COc1ccccc1C,-17%,-3.6%,5%,-14%,?,?,?,7%
CCCNC(=O)C(=O)Nc1ccc(N(C)C)cc1,0%,-5.0%,18%,-5%,1%,7%,?,-2%
COC(=O)c1ccc(COc2cccc(C)c2C)cc1,-4%,·,1%,·,36%[activator],?,0%[46.1 µM],-12%
Cc1nn(CC(=O)NCc2ccc(Cl)cc2)c(C)c1[N+](=O)[O-],?,1.5%,7%,14%,-5%,0%,8%,-8%
O=C(Nc1ccccc1)c1cccc(N2C(=O)C3C4CC(C(Br)C4Br)C3C2=O)c1 (stereo unspecified),-19%,·,0%,·,?,-15%,20%,22%
CC(C)(C)OC(=O)N1C[C@H](O)C[C@H]1C(=O)OCC(=O)c1ccc([N+](=O)[O-])cc1,-4%,·,0%,·,-14%,-11%[46.1 µM],0%[46.1 µM],5%
COc1ccc(-c2cc3c(=O)n(CC(=O)Nc4cc(F)ccc4F)ccn3n2)cc1OC,·,-0.1%,·,-4%,5%,0%[46.1 µM],·,·
CC1CCCCN1C(=O)c1ccc2c(c1)N(Cc1ccc(Cl)cc1)C(=O)c1ccccc1S2=O (stereo unspecified),·,2.1%,·,9%,-3%,?,?,·
Cc1ccc(Cn2c(=O)n(CCc3ccc(Cl)cc3)c(=O)c3ccccc32)cc1,·,-0.2%,·,3%,-20%,23%[46.1 µM],-25%[46.1 µM],·
COc1ccc(NC(=O)CSc2n[nH]c(-c3ccncc3)n2)c([N+](=O)[O-])c1,-8%,·,0%,·,-16%,14%,?,2%
Cc1ccc(NS(=O)(=O)c2cc(C(=O)N3CCOCC3)ccc2C)cc1,0%,-7.6%,5%,-2%,·,-17%,4%,14%
Cc1ccc(CCNC(=O)c2ccc(CS(=O)(=O)Cc3ccc(F)cc3)o2)cc1,-5%,·,2%,·,-10%,·,·,-14%
CCCCc1ccc(S(=O)(=O)N2CCN(C(=O)c3ccco3)CC2)cc1,7%,-7.1%,2%,8%,?,?,0%,-7%
CCn1nc(C)cc1C(=O)N1CCCC(CCC(=O)NCc2ccccc2F)C1 (stereo unspecified),-1%,·,1%,·,-20%,-25%[46.1 µM],-24%[46.1 µM],1%
O=C(CCC(=O)N1CCN(c2ccccc2)CC1)Nc1nnc(C2CCCCC2)s1,0%,·,0%,·,13%,0%,?,-2%
COC(=O)NCC(c1cccnc1)N1CCN(c2ccccc2)CC1 (stereo unspecified),3%,-3.1%,7%,17%,-26%,·,·,-7%
CC(C)CN(C(=O)CSc1nn(-c2ccc(Cl)cc2)c(=S)s1)C1CCS(=O)(=O)C1 (stereo unspecified),?,-6.7%,?,?,?,?,?,0%
Nc1ccc2nc(-c3ccccc3)c(-c3ccccc3)nc2c1,16%,·,3%,·,-23%,-17%,-10%[46.1 µM],-8%
CCC(=O)Nc1nc2ccccc2n1CCN(C)C,1%,-2.4%,5%,-8%,8%,?,-10%&-10%,-1%
COc1cc(/C=N\NC(=O)C2C(=O)NCC2c2ccccc2)cc(OC)c1O (stereo unspecified),11%,5.7%,2%,2%,-1%,21%,?,-11%
Cc1cc(N(C)NC(=S)Nc2ccccc2)nc(C)n1,-3%,-2.9%,3%,-1%,-6%,0%,18%,-6%
CN(Cc1ccc(F)cc1)C(=O)c1cccc(S(=O)(=O)NCc2ccccc2)c1,·,·,-1%,·,-11%,?,?,5%
O=c1oc(-c2ccccc2)cc(Cl)c1Cl,-83%,·,-13%,·,25µM*,?,11µM*,?
CCOc1ccc(CN2CCNC(=O)C2CC(=O)NCCC2=CCCCC2)cc1 (stereo unspecified),-3%,·,-2%,·,9%,?,-10%[46.1 µM],1%
COc1ccc(NC(=O)C2=C(C)Nc3nc(SCc4ccccc4)nn3C2c2cc(OC)ccc2OC)cc1 (stereo unspecified),·,1.3%,·,-8%,-24%,?,·,·
COc1ccc(OC)c2sc(N3CCCCC3)nc12,-19%,-4.2%,-8%,10%,72%[activator],-18%,-16%,?
OC1(c2ccccc2Cl)NN=C2CCCCCN21 (stereo unspecified),·,·,0%,·,-6%,-1%,19%[46.1 µM],-5%
Cc1ccc(C)c(-n2c(C)nc3ccccc3c2=O)c1,2%,·,-1%,·,-4%,·,·,1%
O=C(O)c1cscn1,2%,4.7%,3%,5%,20%,4%,-12%,8%
CC(=O)N(CN1C(=O)c2ccccc2C1=O)c1ccccc1,1%,0.4%,-1%,2%,-20%,-1%,-2%,2%
CCOCC(=O)Nc1ccc(S(=O)(=O)NCC2CCCO2)cc1 (stereo unspecified),9%,·,-3%,·,-5%,-6%[46.1 µM],-3%[46.1 µM],-15%
CC(Sc1n[nH]c(N)n1)C(=O)Nc1ccccc1-c1ccccc1 (stereo unspecified),·,·,-7%,·,7%,-9%,3%,-15%
COc1cccc(C2=NOC(C(=O)NC(C)C)C2)c1 (stereo unspecified),-6%,2.1%,-2%,-8%,-7%,18%[14.3 µM],14%,2%
FC(F)(F)c1nc2nncn2c2c1CCCCC2,4%,-2.3%,-1%,8%,-14%,6%,-3%,5%
COc1ccc(NC(=O)c2ccc(S(=O)(=O)N3CCCCC3)cc2)c(OC)c1,-1%,·,0%,·,6%,3%[46.1 µM],2%[46.1 µM],-6%
N#CCCn1nc(-c2ccccc2)cc1-n1c(C(F)(F)F)nc2ccccc21,-43%,-4.0%,-27%,?,-22%,?,?,26%
O=C(CSc1nnc(-c2ccccc2)o1)NC1CC1,·,·,-5%,·,11%,22%,?,11%
Cc1cc(=O)oc2c3c(cc(OCC(=O)NC4CC4)c12)OC(C)(C)CC3,15%,·,-10%,·,-19%,·,·,-12%
COCCNS(=O)(=O)c1ccc(Cl)c(C(=O)NC2CCN(Cc3ccccc3)CC2)c1,0%,·,-2%,·,-9%,-6%[46.1 µM],-1%[46.1 µM],-18%
# Going on with the list.
SMILES,NS1 function inh,Cruzain Triton,SARS PLpro yeast,Cruzain inh noDet,2A StopGo,Lassa entry inh,MARV entry inh,RE007 growth inh
O=C(CNS(=O)(=O)c1ccc(Br)s1)NCC1COc2ccccc2O1 (stereo unspecified),-44%,3.1%,-7%,7%,-15%,10%[14.3 µM],-15%,-26%
O=C(Nc1ccc(F)cc1)NC1CCCCCCC1,-22%,·,-2%,·,45%[activator],-12%[46.1 µM],1%[46.1 µM],19%
Cc1ccccc1N1CN(Cc2ccco2)CNC1=S,6%,-1.2%,17%,-11%,16%,15%,?,-1%
O=S(=O)(Nc1cc(F)ccc1F)c1cccc2nsnc12,-46%,·,1%,·,6%,·,·,-6%
COC(=O)/C(=C\Nc1ccccc1)NC(=O)c1ccc(Cl)cc1Cl,-2%,-12%,15%,6%,0%,-23%,?,-9%
